PINK1 modulator – modulators of PINK1 expression; hit rate 0.2% among 410,000; PINK1 immunofluorescence, high-content cytometry, 24 h; Potency, µM (highest dose often 76.6 µM), for the others: at the highest dose activation (PINK1 increase), actives largely listed as activators; active = well fitted activation curve with a large enough effect; inconclusive = small, poorly fitted or top-dose-only effect; inactive = flat fitted curve, though single readings scatter; cell line not stated here;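 further: potency means the concentration at half of the fitted maximal effect; % of control where 0% means no effect; nearly all actives have a fitted effect of over 65% in size; a mitochondrial uncoupler was the plate control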
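Decision-based qHTS: stable cells, 24 h exposure to five compound concentrations, CCCP as control. Fixed cells stained for PINK1 plus nuclear, mitochondrial and cell markers, cytometer read.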
Sfp inh – inhibitors of Bacillus subtilis Sfp phosphopantetheinyl transferase; Biochemical Sfp PPTase activity, qHTS; Q9F4F7; Potency, µM, for the others: max response, negative = inhibition, usual class: inhibitors; hit rate 3.5% among 310,000; active means well fitted inhibition curve with a large enough effect; inconclusive means small, poorly fitted or top-dose-only effect, or another doubt; inactive means no such curve, though single readings can be large or run the other way;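 further: the enzyme is Sfp with the accession as filed and its product quenches rhodamine fluorescence; potency means the concentration at half of the fitted maximal effect; 0% = enzyme reaction without inhibitor and -100% = no enzyme wells; top concentration of the series not given in the record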
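Fluorescence-quenching assay: 15 nM Sfp-PPTase preincubated 15 min at room temperature with compound, then 5 uM rhodamine-CoA and 12.5 uM BHQ-2-labelled YbbR peptide added. Fluorescence (ex 525/em 598 nm) read at start and after 30 min; difference gives rate.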
Menin MLL FP FL – menin-MLL binding inhibition, fluorescein peptide | 290,000 tested, under 10 active | FP activity change, % at 61.4 µM | AID 1766 | Fluorescence polarization, fluorescein-MLL peptide displacement from menin; inconclusive = falling polarisation curve, or a change in total fluorescence; inactive = total fluorescence flat and polarisation flat or rising; no compound was filed as active; the % refers to the polarisation; negative = inhibition;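 further: % of control where 0% means no effect; inhibitors lower the polarisation; unlabelled MLL peptide was the positive control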
ClpP mod – qHTS Assay for Activators of ClpP; ATP-dependent Clp protease proteolytic subunit (Bacillus subtilis (strain 168)), P80244; purified B. subtilis ClpP, FRET peptide cleavage, 20 min; Potency, µM (top dose mostly 57.5 µM), without a hit: top-dose activity change, negative = active; hit rate 1.9% among 340,000; AID 651965, 2013; active = well fitted falling curve with a large enough effect; inconclusive = small, poorly fitted or top-dose-only effect; inactive = no such curve, though single readings can be large or run the other way; further: potency means the concentration at half of the fitted maximal effect; the source files actives as falling curves though it sought activators and does not explain the sign; nearly all actives have a fitted effect of over 65% in size; many hits overshoot -100%
Target sequence (P80244 whole entry, looked up): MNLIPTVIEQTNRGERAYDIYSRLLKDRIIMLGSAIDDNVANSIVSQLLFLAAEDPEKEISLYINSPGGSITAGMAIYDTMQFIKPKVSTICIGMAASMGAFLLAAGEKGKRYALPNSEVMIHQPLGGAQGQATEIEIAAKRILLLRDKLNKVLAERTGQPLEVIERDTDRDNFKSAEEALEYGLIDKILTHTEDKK
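Buffer: 100 mM Tris/HCl pH8, 100 mM KCl, 0.05% low protease BSA, 2.5% glycerol, 0.01% Tween-20. ClpP 10 microg/mL final; 20 min RT; delta FRET normalized to ADEP and DMSO controls.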
D2 ag – human D2 receptor agonism in beta-arrestin assay | hit rate 0.084% among 360,000 | P14416 | DiscoveRx PathHunter D2 beta-arrestin, luminescence, 90 min; 100% = 57 uM dopamine signal | AID 624465 | activation, % (concentration not given with the values); in the data active = activation above about 40%; inconclusive = about 15% to 40%; inactive = below about 15%; further: compound concentration not given in the record; the text of the record calls up to 30% inactive
Target sequence (P14416 whole entry, looked up): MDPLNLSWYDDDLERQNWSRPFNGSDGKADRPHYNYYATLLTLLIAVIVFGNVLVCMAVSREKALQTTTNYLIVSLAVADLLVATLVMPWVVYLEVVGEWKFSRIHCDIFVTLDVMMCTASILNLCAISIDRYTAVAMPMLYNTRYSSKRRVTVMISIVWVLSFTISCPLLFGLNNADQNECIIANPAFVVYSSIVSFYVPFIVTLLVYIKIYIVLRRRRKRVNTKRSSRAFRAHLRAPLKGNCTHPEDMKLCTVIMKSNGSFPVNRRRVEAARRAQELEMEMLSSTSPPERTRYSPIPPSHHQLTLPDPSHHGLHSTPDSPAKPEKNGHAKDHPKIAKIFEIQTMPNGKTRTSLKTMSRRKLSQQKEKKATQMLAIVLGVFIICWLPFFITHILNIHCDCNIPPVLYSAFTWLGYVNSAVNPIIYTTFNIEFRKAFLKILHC
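DiscoveRx PathHunter D2 beta-arrestin cells (2,100/well) attached overnight, then compound-stimulated 90 min at 37 C in HBSS/10 mM HEPES/0.1% Tween-20 buffer; beta-galactosidase complementation read by luminescence after 1 h at ambient temperature. Dopamine 57 uM final (EC100) as control.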
gsp antag – antagonists of gsp mutant (McCune-Albright syndrome); gsp-mutant cells, cAMP HTRF, 30 min; control for the full effect not named in the record; Potency, µM (series often up to 76.9 µM), for the others: at the highest dose activity change, negative = inhibition, actives largely listed as inhibitors; hit rate 0.4% among 340,000; active = falling curve of any shape with a large fitted effect; inconclusive = falling curve, mostly with a smaller effect; inactive = flat or rising curve; cell line not stated here;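 further: intracellular cAMP measured with PDE inhibitor Ro 20-1724 present during compound exposure; potency means the concentration at half of the fitted maximal effect; on the % scale 0 is the no-effect control and ±100 the full control effect; nearly all actives have a fitted effect of over 65% in size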
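HTRF cAMP measurement after 30 min RT detection following 30 min, 37C compound treatment alongside […] (added as 300 uM solution) in G418-selected cells seeded at 2000/well and grown 16–24 h.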
gsp ag – activates gsp, the McCune-Albright syndrome mutation | gsp mutant cells, cAMP HTRF, 30 min; control for the full effect not named in the record | Potency, µM (titrated, usually from 76.9 µM), inactives show at the highest dose activation (cAMP increase), actives largely listed as activators | hit rate 0.13% among 340,000 | AID 624287; active = well fitted activation curve with a large enough effect; inconclusive = small, poorly fitted or top-dose-only effect, or another doubt; inactive = no such curve, though single readings can be large or run the other way; cell line not stated here;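 further: phosphodiesterase inhibitor Ro 20-1724 added with compounds to block cAMP breakdown; potency means the concentration at half of the fitted maximal effect; nearly all actives have a fitted effect of over 60% in size; about a fifth of the inactives were tested at one dose only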
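Cells in DMEM/10% FBS with G418 were pretreated with compounds in DMSO plus […] (300 uM stock) for 30 min at 37C. cAMP was measured by HTRF (cAMP-d2 plus anti-cAMP antibody-K) after 30 min at room temperature.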
Starred values were filed as active, the others as inactive; [ ] = dose if it differs, or a comment.

`Cc1cc(-c2ccccc2)[nH]c(=O)c1S(=O)(=O)c1ccc(Cl)cc1` gave PINK1 modulator 8.2%, Sfp inh -4%, Menin MLL FP FL -1.0, ClpP mod inconclusive, D2 ag -2.6, gsp antag 9% and gsp ag 20%.
For Cc1cc(NC(=O)/C=C/C(=O)N(CC(=O)NC2CCCC2)c2cccc3ccccc23)no1 the results were PINK1 modulator -0.1%, Sfp inh 5%, Menin MLL FP FL 0.1, ClpP mod 0.1%, D2 ag -0.3, gsp antag -4% and gsp ag 2%[15.4 µM].
For CCCCC(CC)C(=O)Nc1ccccc1C#N (stereo unspecified) the results were PINK1 modulator inconclusive, Sfp inh 12%, Menin MLL FP FL -1.2, ClpP mod 0.1%, D2 ag -3.4, gsp antag -3% and gsp ag 1%.
`Cc1ccc(C(=O)c2ccc(N3CCOCC3)c(F)c2)cc1` gave PINK1 modulator 1.6%, Sfp inh -21%, Menin MLL FP FL -0.8, ClpP mod 0.9%, D2 ag 7.5, gsp antag 4% and gsp ag -3%.
`CCOC(=O)CNC(=O)CCNS(=O)(=O)c1ccc2c(c1)c(=O)n(C)c(=O)n2C` gave Sfp inh -4%, Menin MLL FP FL 2.9, ClpP mod -10%, D2 ag -2.4, gsp antag 6% and gsp ag 38%.
`COc1ccc(OC)c(NC(=O)Nc2ccc(Cl)cc2)c1` gave PINK1 modulator 2.5%[38.3 µM], Sfp inh -9%, Menin MLL FP FL -0.8, ClpP mod -2.9%, D2 ag -0.8, gsp antag inconclusive and gsp ag -8%.
`Cc1ccccc1NC(=O)c1cc(S(=O)(=O)N2CCOCC2)cs1` gave PINK1 modulator 1.6%, Sfp inh 2%, Menin MLL FP FL 0.5, ClpP mod -1.1%, D2 ag -0.6, gsp antag 8% and gsp ag 4%.
`Cc1cc(/C=N/NC(=O)c2ccc(CN3CCOCC3)cc2)c(C)n1-c1ccccc1` gave PINK1 modulator -3.9%[38.3 µM], Sfp inh 3%, Menin MLL FP FL -2.5, ClpP mod 2.5%, D2 ag -1.1, gsp antag 12% and gsp ag inconclusive.
Screening CC(=O)c1cccc(NC(=O)N2CCc3ccccc3C2)c1 returned PINK1 modulator -3.1%[38.3 µM], Sfp inh 12%, Menin MLL FP FL 2.4, ClpP mod -2.1%, D2 ag -3.5, gsp antag -2% and gsp ag 9%.
`Cc1ccc(CN(C(=O)N2CCN(C)CC2)S(=O)(=O)c2ccc(C)cc2)cc1` gave PINK1 modulator 0.9%, ClpP mod -2.2%, D2 ag 0.7, gsp antag 6% and gsp ag -36%[inhibitor].
O=S(=O)(c1ccc(Cl)cc1)N1CCN(C(=S)Nc2ccc(F)c(Cl)c2)CC1 was read as PINK1 modulator 13%, Sfp inh 21%, ClpP mod -1.3%, D2 ag 6.0, gsp antag -14% and gsp ag -36%[inhibitor].
Cc1ccc(CSc2nnc(CNc3ccc(F)cc3)o2)cc1 was read as PINK1 modulator 2.6%, Sfp inh 4%, Menin MLL FP FL -7.7, D2 ag 0.9, gsp antag 1% and gsp ag 18%[15.4 µM].
For CC(=O)Nc1ccccc1O the results were PINK1 modulator 1.4%, Sfp inh 13%, Menin MLL FP FL -1.5, ClpP mod -0.7%, D2 ag 4.1 and gsp antag -1%.
`O=S(=O)(c1ccc(Cl)s1)N1CCCCC1` gave PINK1 modulator 0.7%, Sfp inh 11%, Menin MLL FP FL -0.3, D2 ag -3.6, gsp antag 1% and gsp ag 17%[15.4 µM].
COc1ccc(CC(NC(C)=O)C(=O)NC2CCN(C(=O)Nc3ccc(C#N)cc3)CC2)cc1OC (stereo unspecified) was read as PINK1 modulator -0.2%[38.3 µM], Sfp inh 18%, Menin MLL FP FL 1.7, ClpP mod 0.5%, D2 ag -2.8, gsp antag 6% and gsp ag -7%.
For O=C(/C=C/c1ccco1)Nc1ccccc1C(=O)Nc1cccc(C(=O)O)c1 the results were PINK1 modulator -0.2%, Sfp inh inconclusive, Menin MLL FP FL 11, D2 ag -3.0, gsp antag 2% and gsp ag 9%[15.4 µM].
Screening O=C(Nc1cccc(-c2csc(Nc3ccc(Cl)cc3)n2)c1)c1cc([N+](=O)[O-])cc(C(F)(F)F)c1 returned PINK1 modulator 7.6%, Sfp inh 26%, Menin MLL FP FL 1.1, ClpP mod -0.2%, D2 ag 5.6, gsp antag inconclusive and gsp ag -7%.
C=C(C)COc1ccc(-c2ncncc2-c2ccc(Br)cc2)c(O)c1 was read as PINK1 modulator inconclusive, Sfp inh -5%, Menin MLL FP FL 0.1, ClpP mod -3.7%, D2 ag -2.7, gsp antag -7% and gsp ag -3%[15.4 µM].
Screening Cc1c(C(=O)NCCSCc2c(F)cccc2Cl)cnn1-c1ccc(F)cc1 returned PINK1 modulator 3.4%, Sfp inh 15%, Menin MLL FP FL 5.2, D2 ag -4.3, gsp antag -16% and gsp ag 1%.
For CCCC(=O)C1=C(O)C(C(=O)OC)C(C)(C)CC1=NC(C)(C)C (stereo unspecified) the results were PINK1 modulator -0.4%, Sfp inh -1%, Menin MLL FP FL 3.0, ClpP mod 0.5%, D2 ag -2.8, gsp antag 3% and gsp ag -1%.
Screening CN=C(Nc1ccc(C(=O)OC)s1)c1ccc(Cl)cc1 returned PINK1 modulator 0.4%, Sfp inh -25%, Menin MLL FP FL 0.3, D2 ag 0.6 and gsp ag 10%[15.4 µM].
CC1(C)C(N(O)C(=O)Nc2ccc(Cl)cc2)N(c2ccc(Cl)cc2)C(=O)N1CC(=O)NN (stereo unspecified) was read as Sfp inh 100µM*, Menin MLL FP FL 3.5, ClpP mod 1.1%, D2 ag -0.7, gsp antag 3% and gsp ag 3%.
For COc1ccccc1CNC(=O)c1csc(Cc2ccc(Cl)cc2)n1 the results were PINK1 modulator 4.9%, Sfp inh -17%, Menin MLL FP FL 0.1, ClpP mod 1.3%, D2 ag -5.0, gsp antag -1% and gsp ag -27%.
Screening CCc1cc(CNC(=O)C2CCC(=O)N(Cc3cccc(F)c3)C2)on1 (stereo unspecified) returned PINK1 modulator 2.0%, Sfp inh 4%, ClpP mod -1.1%, D2 ag -1.2, gsp antag 7% and gsp ag 1%.
Screening O=C(OCC(=O)N1CCCC1)c1cc(Cl)ccc1[N+](=O)[O-] returned PINK1 modulator -0.6%, Sfp inh 5%, Menin MLL FP FL 3.3, D2 ag -0.5, gsp antag -4% and gsp ag 9%[15.4 µM].
`Cc1ccc(C(c2nnnn2CC2CCCO2)N2CCN(Cc3ccccc3)CC2)cc1` (stereo unspecified) gave PINK1 modulator -0.4%, Sfp inh -2%, Menin MLL FP FL 1.1, D2 ag -4.6, gsp antag -4% and gsp ag 5%[15.4 µM].
Cc1ccc(C)c(S(=O)(=O)N2CCN(Cc3cc4c(cc3O)OCO4)CC2)c1 was read as PINK1 modulator 2.8%, ClpP mod -0.5%, D2 ag -2.0, gsp antag -15% and gsp ag -60%[inhibitor].
For COc1ccc(OC)c(NC(=O)c2ccccc2N(Cc2ccccc2)S(C)(=O)=O)c1 the results were PINK1 modulator 2.5%, Sfp inh -7%, Menin MLL FP FL -2.4, ClpP mod -0.5%, D2 ag 1.0, gsp antag inconclusive and gsp ag 14%.
COc1cc(OC)cc(C(=O)NC2CC(C)(C)NC(C)(C)C2)c1 was read as PINK1 modulator 0.5%, Sfp inh -1%, Menin MLL FP FL -6.6, ClpP mod -4.4%, D2 ag -1.2, gsp antag 6% and gsp ag -3%[15.4 µM].
Screening COc1ccc(C(C(=O)NC2CCCC2)N(CCN2CCOCC2)C(=O)c2ccc(OC)c(OC)c2)cc1 (stereo unspecified) returned Sfp inh 6%, Menin MLL FP FL 1.4, ClpP mod -8.5%, D2 ag 0.5, gsp antag 4% and gsp ag -15%.
Screening NS(=O)(=O)c1ccc(NC(=O)C2(c3ccccc3)CCCC2)cc1 returned PINK1 modulator -1.4%, Sfp inh 9%, Menin MLL FP FL 0.5, D2 ag 1.3, gsp antag -17% and gsp ag 8%[15.4 µM].
For COc1ccc(C(=O)N2c3cc4c(cc3C(C)=CC2(C)C)OCO4)cc1 the results were PINK1 modulator 5.6%, Sfp inh -13%, Menin MLL FP FL 3.0, ClpP mod inconclusive, D2 ag -3.1, gsp antag inconclusive and gsp ag -43%.
For CN1CCN(CC(=O)Nc2cc(S(=O)(=O)N3CCOCC3)ccc2Cl)CC1 the results were PINK1 modulator -0.6%, ClpP mod 3.1%, D2 ag -7.8, gsp antag -5% and gsp ag -2%[15.4 µM].
Screening CCCCc1nc(C(N)=O)c2[nH]c(=O)n(-c3ccc(OCC)cc3)c2n1 returned PINK1 modulator 1.4%, Sfp inh 16%, Menin MLL FP FL 5.1, ClpP mod 1.0%, D2 ag 2.2, gsp antag 0% and gsp ag 25%.
For CC1CN(c2nc3ccccn3c(=O)c2/C=C(\C#N)S(=O)(=O)c2ccccc2)CC(C)O1 (stereo unspecified) the results were PINK1 modulator 0.2%, Sfp inh 5%, Menin MLL FP FL 1.0, ClpP mod 1.3%, D2 ag -1.5, gsp antag -11% and gsp ag -30%[inhibitor].
`COc1ccccc1C(=O)NCCC(=O)NCC(c1ccccc1OC)N1CCCC1` (stereo unspecified) gave PINK1 modulator 0.3%, D2 ag 0.4, gsp antag 6% and gsp ag 0%[15.4 µM].
For O=C(COc1ncnc2sccc12)Nc1ccc2c(c1)OCCO2 the results were PINK1 modulator -1.8%, Sfp inh -6%, Menin MLL FP FL 0.8, ClpP mod -0.2%, D2 ag -1.9, gsp antag 4% and gsp ag 11%.
For Cc1csc(NC(=O)CNC(=O)OCc2ccccc2)n1 the results were PINK1 modulator 1.3%, Sfp inh -6%, Menin MLL FP FL 2.2, ClpP mod -0.2%, D2 ag -0.8, gsp antag 7% and gsp ag -7%.
S=C1N(c2ccccc2)C(c2ccccc2)N2CCCN12 (stereo unspecified) was read as PINK1 modulator -0.6%, Sfp inh 1%, Menin MLL FP FL 0.1, ClpP mod -0.2%, D2 ag -0.2, gsp antag 2% and gsp ag 4%.

Compounds were not picked by outcome. About 5.1% of those tested had a hit in this group.
